From PubChem BioAssay
PV pol inh: poliovirus RNA polymerase inhibition; P03300; % elongation, % (compound at 16.7 µg/mL); poliovirus polymerase elongation, fluorescence polarization; hits give low values; 0.66% of 150,000 active; AID 588519; in the data active = % elongation below about 90%; note: some results filed as inactive read as strong as hits
Target sequence (P03300 1749-2209 limits assumed): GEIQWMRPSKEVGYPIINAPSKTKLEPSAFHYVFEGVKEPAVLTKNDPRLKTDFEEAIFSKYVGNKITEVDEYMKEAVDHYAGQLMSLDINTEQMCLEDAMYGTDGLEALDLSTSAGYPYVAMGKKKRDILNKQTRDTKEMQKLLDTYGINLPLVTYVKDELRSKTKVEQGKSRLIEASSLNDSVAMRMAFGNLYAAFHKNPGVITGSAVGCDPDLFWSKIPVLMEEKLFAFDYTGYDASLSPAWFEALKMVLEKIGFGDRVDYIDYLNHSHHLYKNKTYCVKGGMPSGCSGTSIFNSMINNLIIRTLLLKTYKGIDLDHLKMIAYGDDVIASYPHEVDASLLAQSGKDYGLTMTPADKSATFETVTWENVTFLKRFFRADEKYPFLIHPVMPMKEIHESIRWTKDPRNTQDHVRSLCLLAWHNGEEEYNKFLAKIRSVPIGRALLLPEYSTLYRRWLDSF
MbtI inh: inhibitors of Mycobacterium tuberculosis siderophore enzyme MbtI | purified MbtI enzyme, fluorescence intensity read-out | inhibition, %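 (about 17 µg/mL by stock and volumes)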 | 0.89% of 100,000 active | AID 493033;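 active = above 50% in both replicates, above 80% if mildly self-fluorescent; inactive = the rest, strongly fluorescent compounds included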;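 note: 0% = mean of negative and 100% = mean of positive controls; one replicate is shown; some compounds called inactive have numbers as strong as hits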
Target sequence (P9WFX0 whole entry, looked up): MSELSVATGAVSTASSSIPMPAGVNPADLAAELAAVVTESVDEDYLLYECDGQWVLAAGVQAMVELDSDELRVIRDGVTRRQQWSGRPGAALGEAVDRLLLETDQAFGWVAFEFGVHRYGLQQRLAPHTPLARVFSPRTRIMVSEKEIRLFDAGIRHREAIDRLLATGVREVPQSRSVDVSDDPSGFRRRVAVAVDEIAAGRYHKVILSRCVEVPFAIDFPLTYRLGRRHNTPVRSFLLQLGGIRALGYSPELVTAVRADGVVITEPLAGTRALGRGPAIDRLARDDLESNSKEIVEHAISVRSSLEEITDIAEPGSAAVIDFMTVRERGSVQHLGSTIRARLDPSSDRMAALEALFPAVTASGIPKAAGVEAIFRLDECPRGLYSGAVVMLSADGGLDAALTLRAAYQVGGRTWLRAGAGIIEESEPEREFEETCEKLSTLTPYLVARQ
MenB inh: inhibitors of Mycobacterium tuberculosis MenB enzyme; P9WNP5; MenB enzyme assay, absorbance read-out; some hits fall short of the stated cut; inhibition, %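 (about 12 µg/mL by stock and volumes)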; 0.43% of 100,000 active;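 active = mean of two replicates above 30%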;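 note: 0% = no compound and 100% = wells with inactive enzyme; the first replicate is given; strong numbers were not always called active; inactives centre near -10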
PV pol inh intensity: recorded beside PV pol inh, whose call it bears; % elongation; measured here: total intensity read-out; formula for this scale not given here;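 total fluorescence in place of polarization; lower means less elongation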
An asterisk follows results filed as active; / = not tested or not shown; & = joins results of further samples.

| Molecule | PV pol inh | PV pol inh intensity | MbtI inh | MenB inh |
| --- | --- | --- | --- | --- |
| FC(F)(F)c1cnc(SCc2ncc(-c3ccccc3)o2)c(Cl)c1 | 106 | 100 | 48 | -12 |
| CC(C)=CCCC(C)N1CC23C=CC(O2)C(C(=O)O)C3C1=O (configuration not stated) | 100 | 102 | -1 | -1 |
| Cc1nccn1-c1ccc(C(F)(F)F)cn1 | 100 | 102 | -19 | 4 |
| COC(=O)c1cc(C#N)c(SCC#N)nc1C(OC)OC | 106 | 109 | 4 | 0 |
| CCOC(=O)/C=C1\SCC(=O)N1CC(=O)Nc1cc(C(F)(F)F)ccc1N1CCOCC1 | 112 | 114 | 7 | -13 |
| COC(=O)c1cc(S(=O)(=O)NCCc2ccccc2)cn1C | 105 | 107 | -8 | -5 |
| O=C(OC(c1ccc2c(c1)OCO2)c1nccc2ccccc12)c1ccco1 (configuration not stated) | 106 | 97 | 25 | -6 |
| CN(C)CCCN1c2ccccc2CCc2ccccc21 | 103&100 | 99&102 | -12&-16 | -6&5 |
| Cc1cc(C)nc(SCC(=O)OCC(=O)N2CCN(c3ccccc3)CC2)n1 | 100 | 106 | 0 | 7 |
| N#CC(/C(=N/S(=O)(=O)c1cccs1)c1ccccc1)c1nnc(N2CCOCC2)n1-c1ccccc1 (configuration not stated) | 102 | 103 | 11 | -8 |
| CCCCN(Cc1ccco1)C(=O)c1cc2c(=O)oc3ccc(C)cc3c2s1 | 104 | 105 | 29 | -18 |
| Cn1c(=O)c2sccc2n2c(CCCC(=O)Nc3ccccc3)nnc12 | 103 | 107 | -12 | -21 |
| Cc1ccccc1N(CC(=O)Nc1sccc1C#N)S(C)(=O)=O | 146 | 194 | -11 | -7 |
| Cc1nsc(N)c1C(=O)OCc1ccc(C#N)cc1 | 103 | 101 | 9 | -34 |
| O=C(COC(=O)c1ccccn1)NC12CC3CC(CC(C3)C1)C2 | 103 | 106 | -8 | / |
| CCOc1ccc2nc(-n3c(C)ccc3C)sc2c1 | 99 | 101 | 6 | / |
| CC(C)C(NC(=O)c1c(F)cccc1F)C(=O)N1CCN(S(=O)(=O)c2ccc(F)cc2)CC1 (configuration not stated) | 96 | 91 | -2 | -12 |
| CC(=O)SC1CC(=O)N(c2ccc(C(C)(C)C)cc2)C1=O (configuration not stated) | 97 | 99 | 0 | 5 |
| CCOC(=O)c1ncoc1-c1ccc(Cl)cc1Cl | 105 | 111 | -8 | -5 |
| COC(=O)c1c(C)nc(C)c2c(=O)oc3ccccc3c12 | 106 | 110 | / | -1 |
| O=C(CSc1nc2sccc2c(=O)n1-c1ccccc1)N1CCCC1 | 107 | 107 | -9 | -11 |
| CSc1ccc(/C=C2/SC(=O)N(CNc3ccccc3)C2=O)cc1 | 102 | 104 | -19 | -46 |
| CCCC(C)C1C(C#N)=C(N)Oc2cc(N)ccc21 (configuration not stated) | 106 | 104 | 8 | -2 |
| CC(C)c1nn2cc(-c3ccc(Br)cc3)nc2s1 | 104 | 102 | -7 | -2 |
| Nc1cc(-c2ccc(I)cc2)[nH]n1 | 100 | 101 | 0 | -10 |
| Cc1cccc2cc(CN(C(=O)C3CC3)C3CCCC3)c3nnnn3c12 | 103 | 102 | -2 | 9 |
| O=C(NC1CC1)c1ccc2c(c1)N(Cc1ccccc1)C(=O)CS2=O (configuration not stated) | 102 | 99 | 14 | -20 |
| Cc1nc2c(-c3ccccc3)c(C)nn2c(C)c1CC(=O)NC(C)CCc1ccco1 (configuration not stated) | 101 | 101 | 5 | -25 |
| O=C(CC1CCCCC1)N1CCOCC1 | 105 | 102 | -4 | -8 |
| Cc1ccccc1N=Cc1c(O)[nH]c2ccccc12 | 98 | 108 | -4 | -40 |

Compound profiles, as listed above:
`CCCC(C)C1C(C#N)=C(N)Oc2cc(N)ccc21` (configuration not stated) reads PV pol inh: 106; PV pol inh intensity: 104; MbtI inh: 8; MenB inh: -2
`Nc1cc(-c2ccc(I)cc2)[nH]n1` reads PV pol inh: 100; PV pol inh intensity: 101; MbtI inh: 0; MenB inh: -10
`CSc1ccc(/C=C2/SC(=O)N(CNc3ccccc3)C2=O)cc1` reads PV pol inh: 102; PV pol inh intensity: 104; MbtI inh: -19; MenB inh: -46

Other structures
| Molecule | PV pol inh | PV pol inh intensity | MbtI inh | MenB inh |
| --- | --- | --- | --- | --- |
| O=C(COc1ccccc1)NCc1nc2ccccc2[nH]1 | 102 | 103 | 7 | 18 |
| COc1ccc(C(O)C(Nc2ccccc2)c2nc3ccccc3n2C)cc1 (configuration not stated) | 104 | 100 | 0 | -6 |
| Cc1c(Cl)cccc1NC(=O)CC(NCCN1CCOCC1)C(=O)O (configuration not stated) | 100 | 100 | -2 | -37 |
| Cc1cc(N=NC(=O)c2ccccc2)ccc1O | 101 | 101 | 5 | -37 |
| CC(C)NC(=O)c1ccc2ccccc2n1 | 103 | 109 | / | -10 |
| CCCc1c(C)nc2c(C)cccc2c1SCCC(=O)O | 104 | 107 | / | 1 |
| CCC(NC(=O)Nc1cc(C)ccc1OC)c1c(-n2cccc2)sc2c1CCN(C)C2 (configuration not stated) | 101 | 104 | -3 | 8 |
| O=C(O)CCCNc1n[nH]c(=O)[nH]c1=O | 100 | 95 | 0 | -5 |
| O=C(COC(=O)c1ccco1)NC12CC3CC(CC(C3)C1)C2 | 102 | 103 | -9 | / |
| COc1ccc(-n2c(CC#N)nnc2SCc2c(C)c(C)c(C)c(C)c2C)cc1 | 103 | 110 | -7 | -14 |
| c1ccc(CCc2ccccn2)nc1 | 99 | 90 | / | -5 |
| Cc1cc(N2CCC(C(=O)Nc3cccnc3Cl)CC2)n2nc(C)c(-c3ccc(Cl)cc3)c2n1 | 102 | 103 | 200 | -19 |
| COCCNC(=S)c1ccc(N(C)C)cc1 | 101 | 100 | 62* | -52 |
| CC(C)(C)N1C(=O)NC(=O)/C(=C\c2cn(Cc3ccccc3)c3ccccc23)C1=O | 101 | 106 | -13 | -36 |
| N#Cc1cnc(Sc2nnc(-c3ccco3)n2-c2ccccc2)nc1N | 101 | 103 | 16 | -14 |
| O=C(/C=C/c1ccccc1)N(c1ccccn1)C1CCCCC1 | 101 | 98 | 9 | 2 |
| CN1CCN(C(=O)CN2C(=O)/C(=C/c3ccccc3)Sc3ccccc32)CC1 | 100 | 101 | -4 | 9 |
| CCN(CC)c1nc(N)c2c(N)n(-c3ccccc3C)c(=S)c(C#N)c2c1C#N | 107 | 104 | 5 | -22 |
| CC(C)S(=O)(=O)c1csc(C(=O)N/N=C/C(C)(C)C)c1-n1cccc1 | 107 | 110 | 6 | -9 |
| CC(Nc1nc(Nc2ccc(F)cc2)nc(SCC(=O)Nc2ccc(F)cc2)n1)c1ccccc1 (configuration not stated) | 102 | 103 | 2 | -22 |

Other results follow.
Molecule	PV pol inh	PV pol inh intensity	MbtI inh	MenB inh
Cc1cccc(NC(=O)C(C)C(=O)c2ccccc2)c1 (configuration not stated)	105	96	/	-20
CCN(CC)CCOCCOC(=O)C1(c2ccccc2)CCCC1	101&104	101&102	-10&-15	10&2
Cc1cc2c(cc1S(=O)(=O)N1CCN(c3ccccc3)CC1)OCCN2C	104	102	-42	-11
O=C(CC1CCCCC1)NCc1cn2ccsc2n1	101	105	4	3
COc1ccc(-c2csc3ncnc(NCCO)c23)cc1	104	108	/	-2
O=C(Cn1c(=O)c(F)cn(C2CCCO2)c1=O)Nc1cccc(I)c1 (configuration not stated)	100	103	-4	-13
Clc1ccc(-c2nnc(-c3ccc(Cl)cc3)o2)cc1	107	110	-12	0
CCC(=O)Nc1ccccc1N1CCCC1	97	97	/	-21
CCCNC(=O)N1c2ccc(F)cc2CCC1C (configuration not stated)	103	103	-3	-14
CCOc1cc(C(=O)NC(=S)Nc2cccc(-c3ccc(CO)o3)c2)cc(OCC)c1OCC	101	102	-18	-14
C=C1CC2(C)C(=CC1=O)CCC1C2CCC2(C)C(OC(=O)OCC)CCC12 (configuration not stated)	103	104	-6	-2
O=C(NC(=S)N1CCCCC1)c1ccccc1	99	93	2	-16
Cc1ccc(N2N=NC3CCC(C4=CCCC4)C32N2CCOCC2)cc1C (configuration not stated)	105	106	0	5
Cc1noc(C)c1COc1ccc(C(=O)OCC(=O)N2CC(=O)Nc3ccccc32)cc1	103	103	8	6
Cc1ccc(/C=C2\CC(C)CC3=C2NC(=S)NC3c2ccc(C)cc2)cc1 (configuration not stated)	102	99	13	-32
Cc1cc(N(C(=O)c2cc3c(s2)CCC3)C(=O)c2cc3c(s2)CCC3)no1	101	90	-5	-32
CCCNC(=O)C12CC3CC(CC(C3)C1)C2	103	103	-26	-10
CCOC(=O)c1[nH]c(COC(=O)C2CC(=O)N(Cc3ccccc3)C2)c(C(=O)OCC)c1C (configuration not stated)	101	105	-4	-4
CC(=O)N/C(=C\c1ccccc1)C(=O)O	97	99	10	20
COCCn1c(O)c(/C(C)=N/c2sc3c(c2C#N)CCC3)c(=O)[nH]c1=S	138	150	39	-17
O=c1c2ccccc2[nH]c(=S)n1C1CC1	100	101	4	6
Cc1ccc(CNC(=O)c2ccc(CN(Cc3ccccc3)C(=O)Nc3ccccc3)o2)o1	101	103	126	-11
CCSC1=NCCN1C(=O)c1ccc2c(c1)OCO2	103	107	0	-19
COc1cccc(Nc2nnc(SCC(=O)c3cc(C)n(C)c3C)s2)c1	106	110	-11	-20
Cn1c(=O)c2nc(SCC(N)=O)n(C)c2n(C)c1=O	104	107	-2	-23
CSC(=C(C#N)C#N)N1CCOCC1	101	107	-3	-1
NNC(=O)c1cc2ncc(C(F)(F)F)cc2s1	101	105	2	-9
COC(=O)Nc1ccc2c(c1)CCCN2S(=O)(=O)c1ccc(C)cc1	106	109	-11	-30
NC(=O)CCCc1nc(-c2ccccc2)no1	104	101	-15	-1
CSCCC1C2=C(CC(C)(C)CC2=O)Nc2c1c(C)nn2-c1nc2ccccc2s1 (configuration not stated)	91	98	69	-15
Cn1c(CC(N)=S)nc2ccccc21	113	118	87	-83
CC1=C(c2sc(-c3ccccc3)nc2-c2cccs2)C(=O)OC1	135	133	-10	-27
c1ccc(-c2cc3n(c2)CCc2ccccc2-3)cc1	100	104	-226	9
c1ccc([S+]2c3ccccc3Nc3ccccc32)cc1	101	105	/	3
Cc1ccccc1CSCc1nc2ccccc2c(=O)n1CC#N	104	110	-9	-16
CCN1CCCC1CNCc1c(C(=O)O)n(Cc2ccccc2C)c2ccccc12 (configuration not stated)	102	98	-3	-27
N#C/C(C(=O)c1ccccc1)=C1/CCCCCN1	102	104	-10	-30
Cn1cc(CCC(=O)NCCCc2ccccc2)c2ccccc21	104	104	-20	-10
CC1=NN(c2cccc(Cl)c2)C(=O)C1	104	109	40	-128
CC1=C(C(=O)Nc2ccc(C(=O)NCc3ccc4c(c3)OCO4)cc2)SCCO1	104	105	-8	-14
CC1=C(c2nc(-c3ccccc3)no2)C(c2ccsc2)NC(=S)N1 (configuration not stated)	101	103	2	-1
CN1CCN(Cc2cc(=O)n3ccsc3n2)CC1	102	104	65	10
Cc1nonc1CSCC(=O)O	101	104	10	23
Cc1ccc(-c2cc(-c3ccccc3)no2)c(O)c1	100	104	-236	-36
COC(=S)Nc1cccc(Cl)c1	99	95	-2	8
CCc1ccc(Nc2nc(N)nc(C(F)(F)F)n2)cc1	99	100	0	2
O=C(O)c1ccccc1NS(=O)(=O)c1cccc(-n2sc3ccccc3c2=O)c1	98	101	93	-46
CC(=O)N1C2C=CC(C2)C1(C(F)(F)F)C(F)(F)F (configuration not stated)	107	110	/	-4
CC(C(=O)N1CCc2ccccc21)N1CCc2ccccc2C1 (configuration not stated)	102	107	3	-14
Cc1cc2cc(CNC(=O)c3cc4ccccc4o3)ccc2n1C	100	107	20	10
NC(=O)c1cc[n+](CC2=C(C(=O)O)N3C(=O)[C@@H](NC(=O)[C@@H](c4ccccc4)S(=O)(=O)[O-])[C@H]3SC2)cc1	99	100	0	-4
O=C(Nc1ccc(Cl)cc1)c1ccc(CSC2=NCCS2)cc1	101	96	/	-30
Cc1ccc2c(c1)C1c3sc(=O)[nH]c3SCC1(CC(=O)O)C(=O)O2 (configuration not stated)	100	100	13	-24
O=c1cc(CSc2nc3ncccc3[nH]2)nc2ccccn12	102	104	-40	-6
Cc1cc(C)cc(NC(=S)Nc2cc(C)cc(C)c2)c1	110	114	4	-27
Cc1cc(/C=N/NC=O)c(C)n1-c1ccc(I)cc1	106	108	7	2
Cc1nn(-c2ccccc2)c(CC(C)(C)C(=O)O)c1C(=O)O	98	101	0	8
CCC1=NC(C(F)(F)F)(C(F)(F)F)C2=C(CC(C)(C)CC2=O)N1Cc1ccccc1	101	103	0	-1
Cc1cc(C)n(-c2cc(=O)[nH]c(=O)[nH]2)n1	102	102	2	-15
Cc1ccccc1/C=C/c1c[nH]c2ccccc12	105	121	-16	-6

New compounds follow
Molecule	PV pol inh	PV pol inh intensity	MbtI inh	MenB inh
Cc1cc(NC(=O)COC(=O)C23CC4CC(CC(C4)C2)C3)no1	103	104	-2	-16
CCN1CCN(Cc2ccc(C)cc2)CC1	103	100	-10	-23
CC(=O)Nc1cccc(C(=O)OCC(=O)N2CCN(c3ccccc3)CC2)c1	104	107	-8	-4
Nc1cccnc1NCc1ccccc1	97	116	17	15
CCC(=O)Nc1cccc(OCc2cc(=O)n3nc(CC)sc3n2)c1	99	103	8	-14
CCOC(=O)C1CCN(C(C)C(=O)NC23CC4CC(CC(C4)C2)C3)CC1 (configuration not stated)	107	106	-4	5
CC(C)NC(=O)CN1C(=O)C(C)(C)Oc2ccc(C(=O)NC(C)C)cc21	103	104	0	-21
